Mtb hypoxia inh = Mtb hypoxia fluorescent reporter inhibition. actives 0.1% (n = 300,000). fluorescence inhibition, % (concentration not given with the values). M. tuberculosis hypoxia-regulated fluorescent reporter, fluorescence;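 active means 35 to 45% if threefold the growth effect, above 45% if 1.5-fold the growth effect; inactive means the rest, general growth blockers included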;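 further: wells of about 50 µL received 100 nL stock; 0% = vehicle wells and 100% = reference inhibitor wells; whole bacteria with a GFP reporter of the hypoxia response; strong numbers were not always called active; many hits fall short of the cut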
Sa RN4220 lethal = kills Staphylococcus aureus RN4220; inhibition, % (concentration not given with the values); actives 0.33% (n = 330,000); S. aureus RN4220 growth, OD600, 16 h; AID 1259311;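 active means z-score of -3 or lower and OD600 up to 0.18 on both plates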;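 further: plate controls were untreated cells for no effect and reference antibiotic for full effect; stock transfer was 100 nL into about 80 µL; one replicate is shown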
BJeLR lethal = BJeLR cell viability loss. inhibition, % (no concentration beside the values). BJeLR (HRASV12) viability, CellTiter-Glo ATP luminescence, 48 h; reference of the scale not given here. actives 0.17% (n = 300,000). AID 1554;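 active means replicate mean above 50%; inconclusive means above 50% but judged a plate artefact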;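 further: 50 nL library stock added to about 25 µL; numbers are from one replicate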
Sa ugtP lethal = kills S. aureus RN4220 lacking UgtP. S. aureus RN4220 ugtP deletion, OD600 growth, 16 h; some inactives read as strong as hits. growth inhibition, % (no concentration beside the values). actives 0.54% (n = 330,000). AID 1259309;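 active means z-score under -3 and OD600 up to 0.15 on both plates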;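 further: plate controls were untreated wells for no effect and antibiotic for full effect; wells of about 80 µL received 100 nL stock; the first replicate is given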
Autofluor counter = flagged as autofluorescent in microsphere protease counterscreen. compound autofluorescence counterscreen, microsphere flow cytometry; active compounds read high. fluorescence intensity (no concentration beside the values). actives 3.1% (n = 360,000). AID 624483;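 active means at least 3 SD above the mean of all compounds, about 16000 in these data; inconclusive means too few beads counted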;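 further: 100 nL of 1 mM stock went into each well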
PrP 5UTR inh = inhibition of PrP 5' UTR reporter expression; cell-based PrP 5' UTR mRNA reporter, plate reader; inhibition, % (test concentration not listed); actives 0.35% (n = 340,000); AID 488862;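 active means every replicate at 50% or more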;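 further: 0 = median of the neutral control wells; tested in H4 reporter cells; numbers are from one replicate; inactives centre near -14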
Mtb hypoxia inh growth = further read-out of Mtb hypoxia inh, marked with its call; growth inhibition, %; measured here: M. tuberculosis growth (absorbance);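 0% = vehicle and 100% = reference antibiotic; read after six days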
Numbers without * were called inactive; ? = inconclusive; . = not tested or not shown; & = joins results of further samples.

SMILES | PrP 5UTR inh | BJeLR lethal | Mtb hypoxia inh growth | Sa RN4220 lethal | Mtb hypoxia inh | Sa ugtP lethal | Autofluor counter
CC(C)(C)c1cnnn1-c1ccc(NC(=O)c2ccc3c(c2)OCO3)cc1 | -18 | -13 | -2 | 1.2 | 7 | 1 | 23470*
Cn1nnnc1SCC(=O)Nc1sccc1C(N)=O | -34 | . | 7 | 4.7 | 13 | 4 | 2972
Cc1c(C(=O)O)sc(=S)n1-c1ccccc1 | -5 | 12 | . | 9.4 | . | 7 | 3881
O=C(Nc1ccc(N2CCN(C(=O)c3ccccc3)CC2)cc1)c1ccc([N+](=O)[O-])o1 | 17 | -1 | . | 3.9 | . | 19 | 3346
COc1ccc(CC(=O)O)cc1O | -59 | -3 | 4 | 4.6 | 10 | -2 | 3989
CC(C)CN1CCN(Cc2nc(C(C)C)cs2)CC1CCO (centres undefined) | 12 | -2 | 3 | 8.5 | 5 | 1 | 3357
CCc1nnc(N2C(=O)c3ccccc3C2(O)c2ccccc2)s1 (centres undefined) | -9 | -2 | 7 | 5.3 | 6 | 2 | 4540
CN(C)CCCNc1c2ccccc2nc2ccccc12 | . | 69* | 1 | 3.8 | 9 | -11 | 3163
COc1ccc(Cl)cc1C(=O)CSc1nnnn1C | 43 | 7 | 8 | 9.0 | 21 | 8 | 4333
COc1ccc(CCNC(=O)CSCc2ccc(F)cc2)cc1OC | -14 | -6 | 7 | 9.5 | 15 | 12 | 2407
COc1ccc(OC)c(C(=O)c2ccc(C(=O)N3CCN(Cc4csc(C)n4)CC3)cc2)c1 | -14 | 14 | -10 | -6.8 | -2 | -5 | 4243
COc1ccc(-c2cc3cc(OC)c(OC)cc3cn2)cc1OC | -43 | -12 | 5 | 0.3 | 9 | -8 | 3652
CCCCN(C)CCN1C(=O)C2C(C(=O)Nc3ccc(Cl)cc3)C3C=CC2(O3)C1C(=O)NC1CCCCC1 (centres undefined) | -18 | -19 | -7 | 2.2 | -1 | -7 | 4108
CCCCCn1c(=O)c(C(=O)Nc2nc(CC(=O)OCC)cs2)c(O)c2ccccc21 | -7 | -3 | 12 | 52 | 15 | 74 | 4290
CCS(=O)(=O)c1ccc(O)c(NC(=O)c2ccc(S(=O)(=O)N3CCCCCC3)cc2)c1 | -3 | . | 6 | 4.1 | 3 | 3 | 3712
O=C(c1cccs1)N(c1cccc(Cl)c1)C1C=CS(=O)(=O)C1 (centres undefined) | -8 | -1 | 0 | 5.0 | 14 | 3 | 2964
COC(=O)Cc1c(C)nc2nc(NCc3ccccc3OC)[nH]n2c1=O | -11 | 0 | -2 | 2.2 | 0 | 1 | 3272
Cc1ccc(/C=N/n2c(-c3ccncc3)n[nH]c2=S)cc1 | 0 | 4 | . | . | . | . | 2004
COc1ccc(Nc2ccc(N3C(=O)CC(C)C3=O)cc2[N+](=O)[O-])cn1 (centres undefined) | -23 | 10 | -3 | 1.5 | 7 | 3 | 4942
C=CCN(c1ccc(C(=O)Nc2ccc(NC(C)=O)cc2)cc1)S(C)(=O)=O | -10 | 9 | -2 | 4.9 | 6 | -2 | 4932
COc1ccc2nc(C)cc(SCC(=O)O)c2c1 | -12&-74 | 1&-3 | 20&13 | 3.7&3.4 | 11&23 | 6&4 | 11424
CCc1ccc(-n2c(=O)c3ccccc3n(CC(=O)NCc3ccco3)c2=O)cc1 | -3 | -8 | -10 | 3.2 | -8 | 3 | 3997
Cc1ccccc1N1C(=S)NC2c3ccccc3OC1(C)C2C(=O)N(C)C (centres undefined) | -15 | 2 | 9 | 1.2 | 8 | 3 | 5239
O=C(/C=C/Nc1ccccc1F)c1ccc(Br)cc1 | -126 | 10 | -8 | -2.6 | -1 | 2 | 2000

Taken from the listing (15 entries):
SMILES | PrP 5UTR inh | BJeLR lethal | Mtb hypoxia inh growth | Sa RN4220 lethal | Mtb hypoxia inh | Sa ugtP lethal | Autofluor counter
CCc1nnc(N2C(=O)c3ccccc3C2(O)c2ccccc2)s1 (centres undefined) | -9 | -2 | 7 | 5.3 | 6 | 2 | 4540
CN(C)CCCNc1c2ccccc2nc2ccccc12 | . | 69* | 1 | 3.8 | 9 | -11 | 3163
COc1ccc(Cl)cc1C(=O)CSc1nnnn1C | 43 | 7 | 8 | 9.0 | 21 | 8 | 4333
COc1ccc(CCNC(=O)CSCc2ccc(F)cc2)cc1OC | -14 | -6 | 7 | 9.5 | 15 | 12 | 2407
COc1ccc(OC)c(C(=O)c2ccc(C(=O)N3CCN(Cc4csc(C)n4)CC3)cc2)c1 | -14 | 14 | -10 | -6.8 | -2 | -5 | 4243
COc1ccc(-c2cc3cc(OC)c(OC)cc3cn2)cc1OC | -43 | -12 | 5 | 0.3 | 9 | -8 | 3652
CCCCN(C)CCN1C(=O)C2C(C(=O)Nc3ccc(Cl)cc3)C3C=CC2(O3)C1C(=O)NC1CCCCC1 (centres undefined) | -18 | -19 | -7 | 2.2 | -1 | -7 | 4108
CCCCCn1c(=O)c(C(=O)Nc2nc(CC(=O)OCC)cs2)c(O)c2ccccc21 | -7 | -3 | 12 | 52 | 15 | 74 | 4290
CCS(=O)(=O)c1ccc(O)c(NC(=O)c2ccc(S(=O)(=O)N3CCCCCC3)cc2)c1 | -3 | . | 6 | 4.1 | 3 | 3 | 3712
O=C(c1cccs1)N(c1cccc(Cl)c1)C1C=CS(=O)(=O)C1 (centres undefined) | -8 | -1 | 0 | 5.0 | 14 | 3 | 2964
COC(=O)Cc1c(C)nc2nc(NCc3ccccc3OC)[nH]n2c1=O | -11 | 0 | -2 | 2.2 | 0 | 1 | 3272
Cc1ccc(/C=N/n2c(-c3ccncc3)n[nH]c2=S)cc1 | 0 | 4 | . | . | . | . | 2004
COc1ccc(Nc2ccc(N3C(=O)CC(C)C3=O)cc2[N+](=O)[O-])cn1 (centres undefined) | -23 | 10 | -3 | 1.5 | 7 | 3 | 4942
C=CCN(c1ccc(C(=O)Nc2ccc(NC(C)=O)cc2)cc1)S(C)(=O)=O | -10 | 9 | -2 | 4.9 | 6 | -2 | 4932
COc1ccc2nc(C)cc(SCC(=O)O)c2c1 | -12&-74 | 1&-3 | 20&13 | 3.7&3.4 | 11&23 | 6&4 | 11424

(further entries)
SMILES | PrP 5UTR inh | BJeLR lethal | Mtb hypoxia inh growth | Sa RN4220 lethal | Mtb hypoxia inh | Sa ugtP lethal | Autofluor counter
O=C(N/N=C/c1cccs1)c1cncc(Br)c1 | -17 | -3 | . | . | . | . | 2075
Cc1ccc(N=C(NOCc2ccc(Cl)cc2Cl)c2nonc2N)c(C)c1 | -26 | -5 | 10 | -13 | 5 | -32 | 10863
Cc1ccc(CNC(=O)CN(c2cccc([N+](=O)[O-])c2)S(=O)(=O)c2ccccc2)cc1 | 4 | -8 | 2 | -1.5 | -4 | 4 | 2123
COc1ccc2c(c1)nc(SCC(O)c1ccccc1)n2C (centres undefined) | 0 | 5 | 4 | 4.8 | -2 | 4 | 4226
CCNc1nc(Cl)nc(NC2CCCCC2)n1 | -23 | -10 | -5 | 2.1 | 0 | 4 | 4078
Nc1nc(C23CC4CC(CC(C4)C2)C3)[nH]c(=O)n1 | -42 | 2 | 1 | -0.6 | 1 | 2 | 3576
CCn1c(CSCc2ccc(Cl)cc2)n[nH]c1=S | 2 | 8 | 5 | 0.6 | 6 | 1 | 2040
CC(=NNc1nncc2ccccc12)c1ccc(O)cc1 | . | . | -1 | 2.8 | 20 | -1 | .
CCn1c(SCC(=O)Nc2cc(C)on2)nnc1-c1cccnc1 | -3 | -15 | 6 | 1.8 | 8 | 1 | 20847*
O=c1cc2c(nn1Cc1ccccc1)-c1ccccc1CC2 | -5 | 0 | -1 | 1.3 | 7 | 3 | 3158
CN(C(=O)Nc1ccccc1)C1CCCc2ccccc21 (centres undefined) | -13 | 0 | -2 | 7.8 | -7 | 22 | 3789
Cc1cc(C[n+]2cc(Cl)ccc2N)c2ncccc2c1 | -28 | 5 | 13 | 5.5 | 14 | 3 | 4782
COc1ccc(C)cc1NC(=O)C/C(C)=N/NC(=O)Cc1cccc2ccccc12 | -11 | 2 | . | . | . | . | 4801
Cc1nc([N+](=O)[O-])cn1Cc1cccc([N+](=O)[O-])c1 | -18 | -1 | 4 | -1.9 | -7 | 1 | 2635
O=C(NCCCN1CCOCC1)C1Cc2c(ccc3ccccc23)O1 (centres undefined) | -5 | 13 | -4 | 9.4 | 3 | 5 | 3356
O=C1CC(N2CCSCC2)C(=O)N1c1cccc(Br)c1 (centres undefined) | -13 | -1 | 14 | 9.9 | 4 | 9 | 4730
CCOC(=O)C1CCCN(c2cc(NCCCO)c([N+](=O)[O-])c3nonc23)C1 (centres undefined) | . | -2 | -1 | 4.5 | 13 | 8 | .
CCCN(CCC)C(C)C(=O)NCC1(c2ccccc2)CCCC1 (centres undefined) | -15 | 7 | 5 | 5.4 | 1 | -8 | 4589
O=C(CCC1CCCCC1)Nc1nnc(C(F)(F)F)s1 | -11 | 1 | 14 | 3.2 | -2 | 14 | 4319
CCOc1cc(C=NNC(=O)c2cccnc2)ccc1OCC(=O)N(C)C | . | . | 1 | 4.1 | 7 | 0 | .
CC(Sc1nncn1-c1ccccc1)C(=O)Nc1cccc([N+](=O)[O-])c1 (centres undefined) | -7 | -14 | -4 | 3.1 | 1 | 3 | 1911
Cc1cc(C)c2nc(SCC(=O)N3CC(=O)Nc4ccccc43)c(C#N)cc2c1 | 30 | 30 | -12 | -4.0 | -71 | 17 | 7319
COc1ccc(-n2nnc3c(=O)n(CC(=O)N4CCCCC4)cnc32)cc1 | -33 | 8 | 5 | -9.2 | 7 | -3 | 6413
COc1ccc(CC(C)=NNC(=S)Nc2ccc(C)c(C)c2)cc1 | . | . | 0 | 0.2 | -6 | 9 | .
CCOC(=O)/C(C#N)=C/c1cn(CCC(=O)O)nc1-c1cccc(Cl)c1 | -7 | -6 | 0 | 0.9 | -1 | 10 | 3200
CCN(CC(=O)Nc1c(F)cccc1F)C(=O)CCc1nc2sc3c(c2c(=O)[nH]1)CCCC3 | -11 | -7 | -1 | -0.9 | -8 | 0 | ?
CNC(=S)N(CCO)Cc1cc2cc3c(cc2[nH]c1=O)OCO3 | 8 | -3 | -3 | -6.2 | -8 | -7 | 2982
Cc1ccsc1C(=O)OCC(=O)N1CCOCC1 | -38 | 19 | . | -1.2 | . | 6 | 3981
Cc1ccc(NC(=O)CN(C)C(=O)c2ccc(NC(=O)CC3SC(N4CCCC4)=NC3=O)cc2)cc1 (centres undefined) | -11 | 3 | 3 | 2.6 | 7 | 2 | 4980
Cc1ccccc1Nc1nc(N)nc(COC(=O)c2cccn2C)n1 | -89 | 9 | 3 | 3.4 | -5 | -4 | 9913
CC(=O)NC1(C(F)(F)F)N=C(c2ccccc2)NC1=O (centres undefined) | -38 | -15 | 6 | 5.4 | 3 | 0 | 2294
O=C(NCc1ccco1)C(C(=O)c1ccccc1)n1ccccc1=O (centres undefined) | -4 | -19 | 2 | 2.5 | 8 | 4 | 15775
O=C(O)CN1C(=O)C(=O)N(Cc2ccc(Cl)cc2Cl)C1=O | -8 | -1 | 11 | 3.8 | 15 | 20 | 3487
O=c1oc2cc(Oc3ccc(C(F)(F)F)cc3[N+](=O)[O-])ccc2c2c1CCCC2 | -13 | 1 | 13 | 5.6 | 5 | 13 | 3555
C(=C\c1ccccc1)/C=N/N1CCN(c2ccccn2)CC1 | -69 | 11 | . | . | . | . | 2533
OC(COCc1ccc(Cl)cc1)CN1CCc2ccccc2C1 (centres undefined) | -16 | -6 | 2 | 1.0 | 24 | 0 | 2134
O=C(Nc1ccc2c(c1)OCCO2)C1CCCN(S(=O)(=O)Cc2ccccc2)C1 (centres undefined) | -27 | -6 | . | 1.2 | . | 15 | 2729
CCn1nc(C(=O)OCC(=O)NCC(C)C)c2ccccc2c1=O | -9 | 2 | 15 | 7.8 | 7 | 2 | 4201
Cc1cc(NC(=O)COC(=O)CCNS(=O)(=O)c2cccc(C(F)(F)F)c2)no1 | -29 | -3 | 5 | 6.9 | 9 | 7 | 4790
COc1ccc(C(=O)Nc2cccc(/C(C)=N\NC(=O)c3ccoc3C)c2)cc1OC | -25 | -5 | . | . | . | . | 6185
S=C(Nc1ccccc1)Nc1cccc(Br)c1 | -25 | -4 | 4 | -9.2 | 1 | -24 | 2257
O=c1oc(-c2cccc(C(F)(F)F)c2)nn1-c1ccc(C(F)(F)F)cn1 | -26 | 9 | 3 | 3.2 | 3 | 5 | 4126
CN(c1ccc([N+](=O)[O-])cc1/C=N/NC(=O)COc1ccccc1)C1CCCCC1 | -8 | -14 | . | . | . | . | 10798
N#CC1=C(S)N(c2ccccc2)C(c2ccc(-c3ccccc3Cl)o2)NC1=O (centres undefined) | -9 | -12 | 12 | 1.0 | 6 | -29 | 2855
